Screening results: PubChem, Emory University Molecular Libraries Screening Center
Measles inh = inhibitors of measles virus growth in infected cells; infected Vero cells, GFP fluorescence, 64 h; active compounds read low; z-score (concentration not given with the values); hit rate 0.1% among 33,000; AID 745;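 active = z-score under -3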;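 note: score is relative to mean and SD of the compound wells of a plate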
The depositor's hits bear a star. The list is partial; count on the stated rates, not on these rows.

Measles inh | mol
-2.09 | CC1(C)CC(=O)C2=C(C1)OC1=C(C(=O)CC(C)(C)C1)C21C(=O)Nc2ccccc21
2.13 | CCC(C)N1C(=O)C2C(C(=O)Nc3cccc(SC)c3)C3C=CC2(O3)C1C(=O)NC1CCCCC1 (configuration not stated)
-0.24 | COc1cc2[nH]c(=O)n(CCC(=O)N3CCC(N4CCC(C(N)=O)CC4)CC3)c(=O)c2cc1OC
-0.66 | CCn1c(NC2CCCCC2)nc2c1c(=O)[nH]c(=O)n2C
-0.85 | CCN(CC)c1nc2c([nH]1)c(=O)[nH]c(=O)n2C
-0.3 | CCn1c(=S)[nH]c2ccccc21
0.64 | CCOCCOC(=O)C1=C(C)NC2=C(C(=O)CC(C)(C)C2)C1c1ccccc1C (configuration not stated)
0.44 | CCOc1ccc(N2C(=O)C3C(c4ccccc4Cl)NN(C(=O)c4cccc(Br)c4)C3C2=O)cc1 (configuration not stated)
-0.41 | O=C(NCCc1ccsc1)C1CCN(c2ccc(N3CCOCC3)nn2)CC1
1.44 | CCCCN(Cc1ccccc1)S(=O)(=O)c1ccc2c(c1)CCN2C(=O)C1CC1
-0.77 | CCOC(=O)c1c(N=c2oc3c(OC)cccc3cc2C(N)=O)sc2c1CCCC2
-0.64 | CCC(=O)N1CCc2cc(S(=O)(=O)NCCN(C)Cc3ccccc3)ccc21
-0.6 | CC(=O)N1c2c(cc(Br)cc2S(=O)(=O)N2CC=C(c3ccccc3)CC2)CC1C (configuration not stated)
2.18 | Cc1sc2c(c1C)c(=O)n(Cc1ccccc1)c(=O)n2Cc1cccc(Cl)c1
-0.98 | O=C(CSc1ncn[nH]1)c1ccc(Cl)cc1
-1.1 | COc1ccc(-c2nn(C)c3sc(C(=O)Nc4cccc([N+](=O)[O-])c4C)cc23)cc1OC
-0.18 | O=C(NCCC1=CCCCC1)C1CCC(CNS(=O)(=O)c2ccc(F)cc2)CC1 (configuration not stated)
-0.59 | O=C(CS(=O)(=O)c1nc(-c2ccccc2)cn1-c1ccc(Cl)cc1)Nc1ccc(Cl)cc1
-0.28 | CC1(C)CC(=O)C(C(=S)Nc2ccccc2)=C(NC2CC(C)(C)NC(C)(C)C2)C1
0.07 | Clc1cccc(CN2CCN(Cc3ccccn3)CC2)c1
-0.65 | O=C(CCN1C(=O)COc2ccccc21)N1CCCCC1
-1.11 | COc1ccc(CNC(=O)c2nn3c(c2Cl)NC(c2cccs2)CC3C(F)(F)F)cc1 (configuration not stated)
-0.63 | COc1cc(Cl)ccc1S(=O)(=O)N1CCCN(S(=O)(=O)c2ccc(Cl)cc2OC)CC1
0.56 | Cc1cccc(C2OC3(C(=O)c4ccccc4C3=O)C3C(=O)N(c4ccc(C)c(Cl)c4)C(=O)C23)c1 (configuration not stated)
0.05 | CCCCc1ccc(NC(=O)c2ccc(C)cc2)cc1
-0.24 | COc1ccc(NS(=O)(=O)CC23CCC(CC2=O)C3(C)C)cc1 (configuration not stated)
1.51 | COc1ccc(N2C(=O)C3C(C2=O)C2C=CC3C23CC3)cc1 (configuration not stated)
-0.77 | COc1ccc2c(=O)c(-c3ccc4c(c3)OCCCO4)c(C)oc2c1
1.55 | O=S(=O)(c1ccc(Br)c2nsnc12)N1CCC(Cc2ccccc2)CC1
0.87 | COc1ccc(OC)c(Nc2cc(C(=O)NC(C)c3ccccc3)c3ccccc3n2)c1 (configuration not stated)
0.24 | COc1ccc(CCNC(=O)c2cn(C3CCCC3)c(=O)c3c2c2ccccc2n3C)cc1OC
0.41 | Cc1cc(C(=O)Nc2cccnc2)no1
-0.85 | COc1cc(COc2ccc3c4c(c(=O)oc3c2)CCC4)cc(OC)c1OC
-2.04 | COc1ccc(C(=O)N2CCN(c3ccc([N+](=O)[O-])c(N4CCCCC4)c3)CC2)cc1
1.2 | CCCc1cc(=O)oc2cc(OC(C)C(=O)O)ccc12 (configuration not stated)
0.82 | CCCN(c1ccc(C(C)C)cc1)S(=O)(=O)c1ccc2c(c1)c(=O)n(C)c(=O)n2C
-0.64 | CCN1C(=O)NC(c2ccccc2[N+](=O)[O-])C(C(=O)OCCc2ccccc2)=C1C (configuration not stated)
-0.74 | CCOC(=O)c1ccc(NC2=CC(=NS(=O)(=O)c3ccc(OC)cc3)c3ccccc3C2=O)cc1
-0.55 | O=C(O)COc1cccc2ccccc12
1.05 | Cc1cc(C)n2nc(SCC(=O)NC3CCC(C)CC3)nc2n1 (configuration not stated)
2.44 | O=C(NCc1cccnc1)c1ccc(CS(=O)(=O)Cc2ccc(Cl)cc2)o1
1.31 | COC(=O)c1ccccc1NC(=O)c1sc2nc(-c3ccccc3)cn2c1C
1.94 | CCOC(=O)C1=C(C)NC2=C(C(=O)C(C(=O)OC)C(C)C2)C1c1ccc(Cl)cc1 (configuration not stated)
-0.09 | CCOC(=O)c1sc(NS(=O)(=O)c2cc(C)ccc2C)nc1C
-0.47 | CCC(=O)N1CCc2cc(Br)cc(S(=O)(=O)N3CCCC(C(=O)NC4CCCc5ccccc54)C3)c21 (configuration not stated)
-0.08 | N#Cc1c(C(F)(F)F)cc(NCCCN2CCOCC2)n2c1nc1ccccc12
0.02 | COc1ccccc1C(=O)N1CCN(c2ncccn2)CC1
-1.18 | Clc1ccc(Nc2ncnc3sc4c(c23)CCCC4)cc1
-0.18 | COc1ccc(-c2noc(CCC(=O)NCc3ccc4c(c3)OCO4)n2)cc1
-0.61 | Nc1c(C(=O)NCc2ccccc2)nnn1-c1ccc(OC(F)(F)F)cc1

Remaining list, next part
Measles inh | mol
-0.04 | O=C(NC1CC1)C1C2C=CC3(CN(Cc4ccccc4Cl)C(=O)C13)O2 (configuration not stated)
-0.02 | Cc1nn(C)cc1CN(C)C(=O)c1cc2ccccc2oc1=O
-0.57 | COc1cc(OC)cc(N2C(=O)CC(Sc3ccc(Cl)cc3)C2=O)c1 (configuration not stated)
0.52 | COc1ccc(C2CC(c3cccc(NS(C)(=O)=O)c3)=NN2C(=O)c2cccs2)cc1 (configuration not stated)
1.4 | O=[N+]([O-])c1cccc(-c2noc(COc3ccc(Br)cc3)n2)c1
-0.15 | CCOc1ccc(C2C(C(=O)OC)=C(C)N=C3SC(C)C(=O)N32)cc1 (configuration not stated)
0.68 | Cc1sc(N=Cc2c(O)ccc3ccccc23)c(C#N)c1C
-1.61 | CCc1cccc(C)c1NC(=O)COC(=O)C1CC(=O)N(c2ccc(F)cc2)C1 (configuration not stated)
-0.55 | CCC1CCCCN1C(=O)c1sc2ncn(CC(=O)N3CC(C)CC(C)C3)c(=O)c2c1C (configuration not stated)
-0.67 | COc1ccc(C2C(C(=O)NCC3CCCO3)c3ccccc3C(=O)N2C)cc1OC (configuration not stated)
-0.16 | COc1ccc(C2SCCN2S(=O)(=O)c2ccc(-c3ccccc3)cc2)cc1Br (configuration not stated)
-0.63 | CC1(C)CC(=O)C2=C(C1)c1c(ccc3ncccc13)NC2c1ccccc1Br (configuration not stated)
1.75 | CC1CCN(C(=O)CSc2nnc(-c3ccccc3)o2)CC1
0.27 | CCN(CC)c1ccc2cc(C(=O)Nc3ccccc3Cl)c(=N)oc2c1
-0.36 | CC1=C(C(=O)OCCOC(C)C)C(c2ccc(N(C)C)cc2)C2=C(CCCC2=O)N1 (configuration not stated)
0.41 | O=C(c1ccc2c(=O)n(Cc3ccc4c(c3)OCO4)c(=S)[nH]c2c1)N1CCOCC1
-0.99 | O=C(c1ccc(SCCN2CCOCC2)c([N+](=O)[O-])c1)N1CCOCC1
0.08 | C=CCOc1ccc(/C(O)=C2\C(=O)C(=O)N(Cc3cccnc3)C2c2ccc(Br)cc2)c(C)c1 (configuration not stated)
0.89 | CN1Cc2cc(Br)ccc2NC1=O
0.15 | COc1ccc([N+](=O)[O-])cc1NC(=O)c1c([N+](=O)[O-])cnn1C
0.55 | Cc1cccc(NC(=O)c2ccc(OCc3ccccc3Cl)cc2)n1
-0.16 | CCC(C)c1c(O)nc2n(c1=O)CCCS2 (configuration not stated)
-0.3 | COc1ccc(CC(=O)Nc2c3c(nn2-c2ccc(Cl)cc2)CS(=O)(=O)C3)cc1
0.51 | O=C(CSc1nc2[nH]ncc2c(=O)n1-c1ccc(Cl)cc1)NCc1cccs1
-0.68 | Cc1ccc(-c2cc(C(F)(F)F)n3ncc(C(=O)N(C)CCc4ccccn4)c3n2)cc1

Three compounds out of the list above, arranged by the number in Measles inh, highest first:
Measles inh | mol
0.41 | O=C(c1ccc2c(=O)n(Cc3ccc4c(c3)OCO4)c(=S)[nH]c2c1)N1CCOCC1
0.15 | COc1ccc([N+](=O)[O-])cc1NC(=O)c1c([N+](=O)[O-])cnn1C
0.08 | C=CCOc1ccc(/C(O)=C2\C(=O)C(=O)N(Cc3cccnc3)C2c2ccc(Br)cc2)c(C)c1 (configuration not stated)

4 of these compounds in a different format:
SMILES | Measles inh
C=CCOc1ccc(/C(O)=C2\C(=O)C(=O)N(Cc3cccnc3)C2c2ccc(Br)cc2)c(C)c1 (configuration not stated) | 0.08
Cc1nn(C)cc1CN(C)C(=O)c1cc2ccccc2oc1=O | -0.02
CC1(C)CC(=O)C(C(=S)Nc2ccccc2)=C(NC2CC(C)(C)NC(C)(C)C2)C1 | -0.28
COc1ccc(NS(=O)(=O)CC23CCC(CC2=O)C3(C)C)cc1 (configuration not stated) | -0.24

(more compounds)
Measles inh | mol
1.39 | Cc1cccc(-n2nc3c(c2NC(=O)C24CC5CC(CC(C5)C2)C4)CSC3)c1C
1.04 | CC1=C(C(=O)N2CCOCC2)C(c2ccc(C)c([N+](=O)[O-])c2)C2=C(CC(C)(C)CC2=O)N1 (configuration not stated)
-0.41 | CCOC(=O)C1=C(N)OC2=C(C(=O)CC(C)(C)C2)C1c1ccccc1[N+](=O)[O-] (configuration not stated)
2.1 | CCc1nnc(NC(=O)c2cc3c([nH]c4ccccc43)c(C)n2)s1
-0.76 | CC(C)c1nnc(NC(=O)C(C(C)C)N2C(=O)c3ccccc3C2=O)s1 (configuration not stated)
-0.95 | COc1ccc(NC(=O)CC23CC4CC(CC(C4)C2)C3)cc1
0.92 | C=CCN(c1nc(C)cc(OC)n1)S(=O)(=O)c1ccccc1
0.98 | CCOC(=O)C1C(=O)C=C(c2ccc(OC)cc2)CC1c1ccccc1C (configuration not stated)
-0.03 | COc1cccc(-n2nc(C(=O)Nc3ccc(F)cc3)c3ccccc3c2=O)c1
1.48 | Cc1ccc(-c2cc(C(=O)NCCC(C)C)c3ccccc3n2)cc1C
1.61 | CC(C)COC(=O)COc1ccc2c(=O)c(Oc3ccccc3Br)coc2c1
-0.25 | CN(c1ccccc1)S(=O)(=O)Cc1ccccc1
-0.35 | CCOC(=O)c1c(O)cc(C)cc1Nc1ccccc1
-0.32 | CCOc1ccccc1NC(=O)c1sc2ncn(Cc3ccccc3F)c(=O)c2c1C
-0.56 | CCOC(=O)c1c(NC(=O)CCN2C(=O)c3cccc([N+](=O)[O-])c3C2=O)sc2c1CCC2
-0.22 | O=C(CCS(=O)(=O)c1cc(Br)cc2c1N(C(=O)C1CC1)CC2)Nc1cccc(Cl)c1
-0.8 | COc1ccc(NC(=O)c2cn(CC(C)C)c(=O)c3cc(OC)c(OC)cc23)cc1Cl
-0.71 | Cc1ccc(NC(=O)c2oc(=O)c3ccccc3c2-c2ccccc2)cc1F
-1.1 | N#Cc1c(-c2ccccc2)cc(-c2cccc(Br)c2)nc1N
0.04 | COc1ccc(-n2c(=O)c3ccccc3n(Cc3ccc(C)cc3)c2=O)c(OC)c1
-0.19 | Cc1ccc(-n2ncc3c(=O)[nH]c(SCC(=O)Nc4ccc(F)cc4)nc32)cc1
-0.01 | COc1cccc(C(=O)NCc2n[nH]c(=S)n2-c2cccc(Cl)c2)c1
-0.01 | COC(=O)C1=C(C)Nc2nnnn2C1c1ccc(C(=O)OC)cc1 (configuration not stated)
0.34 | COc1ccc(CN2C(=O)CC(C(=O)NCCc3ccccc3)SC2=Nc2ccc(Cl)cc2)cc1 (configuration not stated)
-0.7 | CC(=O)c1sc2ccccc2c1OC(=O)c1ccccc1F
-0.22 | Cc1ccc(CNC(=O)CCCn2c(=O)c3sccc3n(Cc3cc(=O)n4ccccc4n3)c2=O)cc1
1.36 | CC1=C(C(=O)Nc2cccc(Cl)c2)C(c2cccc(Cl)c2)NC(=O)N1 (configuration not stated)
-0.53 | CC(C)(C)n1nc2c(c1NC(=O)c1ccc(Cl)cc1)CS(=O)(=O)C2
-1.43 | O=C(CSc1nc2c(c(=O)n1-c1ccccc1)SCC2)N1CCCc2ccccc21
0.74 | C=CCSc1nnc2c(n1)OC(c1ccccc1OC)N(C(C)=O)c1ccccc1-2 (configuration not stated)
-0.58 | O=C(c1ccco1)N1CCN(c2ncccn2)CC1
0.23 | Cn1cc(CC(=O)NCCCN2CCCC2=O)c2ccccc21
0.19 | CCCn1cc(S(=O)(=O)CC(=O)Nc2ccc(OC)cc2OC)c2ccccc21
-0.14 | CC(=O)C1C(c2cccs2)NC(=O)NC1(O)C(F)(F)F (configuration not stated)
-0.04 | CCOc1ccc(Nc2cc(N3CCN(C(=O)c4ccco4)CC3)c3noc4c3c2C(=O)c2ccccc2-4)cc1
0.48 | CCOC(=O)c1c(NC(=O)c2nccnc2C(=O)O)sc2c1CCCC2
-0.39 | Cc1cc(C)c2nc(C)cc(Nc3ccc(O)cc3)c2c1
-0.5 | COc1ccc(N(C(=O)c2cc(OC)c(OC)c(OC)c2)S(=O)(=O)c2ccc(Cl)cc2)cc1
0.73 | CCN(CC)S(=O)(=O)c1ccc(C(=O)Nc2nc(-c3c(C)cc(C)cc3C)cs2)cc1
0.9 | COC(=O)CNC(=O)c1sc2ncn(CC(=O)N3CCC(C)CC3)c(=O)c2c1C

6 records drawn at random from the list so far, as already listed:
Measles inh | mol
-0.32 | CCOc1ccccc1NC(=O)c1sc2ncn(Cc3ccccc3F)c(=O)c2c1C
0.56 | Cc1cccc(C2OC3(C(=O)c4ccccc4C3=O)C3C(=O)N(c4ccc(C)c(Cl)c4)C(=O)C23)c1 (configuration not stated)
0.55 | Cc1cccc(NC(=O)c2ccc(OCc3ccccc3Cl)cc2)n1
-0.18 | COc1ccc(-c2noc(CCC(=O)NCc3ccc4c(c3)OCO4)n2)cc1
-0.77 | COc1ccc2c(=O)c(-c3ccc4c(c3)OCCCO4)c(C)oc2c1
-0.41 | O=C(NCCc1ccsc1)C1CCN(c2ccc(N3CCOCC3)nn2)CC1
